Assay outcomes from PubChem.
HCMV NEC inh = cytomegalovirus nuclear egress complex inhibition. actives 0.15% (n = 190,000). inhibition, % (concentration not given with the values). HTRF UL50-UL53 interaction, normalized percent inhibition;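 active = both replicates at 50% or more, plus weaker picks with an unusually low signal ratio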;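 note: stock transfer was 100 nL into about 20 µL; 0% = negative control wells and 100% = wells with untagged competitor protein; inactives centre near -12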
GIV Gai3 FP = GIV-Galpha-i interaction inhibition | actives 0.42% (n = 210,000) | Galpha-i3/FITC-GIV peptide fluorescence polarization, 90 min; active compounds read low; scaled: aluminum fluoride 0%, vehicle 100% | P08753 | percent of control (FP), % (no concentration beside the values) | AID 1224905;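 active = replicate mean at 85% of control or lower, very high polarization wells dropped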;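 note: wells of about 15 µL received 100 nL stock; the first replicate is given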
Target sequence (P08753 whole entry, looked up): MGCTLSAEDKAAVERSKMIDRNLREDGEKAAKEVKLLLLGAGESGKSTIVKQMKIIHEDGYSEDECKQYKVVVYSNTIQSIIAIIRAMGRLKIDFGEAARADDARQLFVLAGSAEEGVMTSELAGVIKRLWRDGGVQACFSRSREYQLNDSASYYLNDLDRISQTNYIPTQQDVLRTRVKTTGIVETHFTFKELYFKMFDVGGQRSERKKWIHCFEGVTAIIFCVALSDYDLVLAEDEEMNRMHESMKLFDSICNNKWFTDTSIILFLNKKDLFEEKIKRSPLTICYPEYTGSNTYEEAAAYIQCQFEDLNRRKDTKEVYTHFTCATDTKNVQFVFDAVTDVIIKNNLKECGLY
Sa growth 42C = blocks Staphylococcus aureus growth; S. aureus RN4220 growth, OD600, 20 h, 42 °C; active compounds read low; relative growth, % (no concentration beside the values); actives 0.53% (n = 170,000); AID 720641;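 active = growth at 42 °C up to 50% and 20 or more points under that at 30 °C, or under 10% at both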;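 note: 300 nL library stock went into each well; scaled to the means of positive and negative controls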
Sa growth 42C second temp = second read-out of Sa growth 42C, no call of its own (marks repeat the call); relative growth, %; measured here: growth at 30 °C;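 optical density after 20 h as mean of two plates; 100% = untreated growth and lower means inhibition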
* hit, by the source's call; . = no result given; & = joins results of further samples. This is a random part of the collection (roughly 0.83% active in at least one column).

A first look (two entries):
SMILES	HCMV NEC inh	GIV Gai3 FP	Sa growth 42C	Sa growth 42C second temp
Cc1cc(C)nc(NC(=O)C(c2ccccc2)c2ccccc2)n1	6	106	115	112
CCOC(=O)CC(=O)c1c[nH]c2ccccc12	-8	.	88	87

The list itself, previewed entries included:
SMILES	HCMV NEC inh	GIV Gai3 FP	Sa growth 42C	Sa growth 42C second temp
Cc1cc(C)nc(NC(=O)C(c2ccccc2)c2ccccc2)n1	6	106	115	112
CCOC(=O)CC(=O)c1c[nH]c2ccccc12	-8	.	88	87
N=Nc1[nH]c(N)c2ccccc12	-10	245	143	76
COc1ccc(C2CC(c3cccs3)=NN2C(=O)CS(=O)(=O)c2cn(C)c3ccccc23)cc1 (stereo not given)	-40	97	107	99
CC(=O)N1CCN(/C(C)=C\C(=O)C(F)(F)F)CC1	-3	.	79	89
COC(=O)c1cc2sc(Cl)cc2n1CC(=O)N(C)c1ccccc1	-15	98	94	80
CCOC(=O)c1c(NC(=O)C23CC4CC(CC(C4)C2)C3)sc(C(=O)Nc2ccccc2F)c1C	-14	102	.	.
O=C(c1ccccc1)N1CCN(C(=O)c2cc3ccccc3oc2=O)CC1	-22	100	105	77
Cc1cc(F)ccc1S(=O)(=O)Nc1ccc2oc3c(c2c1)CC(C)CC3 (stereo not given)	-12	108	76	93
CCOc1ccc(Cn2nnc(-c3ccc(S(C)(=O)=O)cc3)n2)cc1OCC	4	.	94	88
COc1ccc(C2C(C#N)=C(N)OC3=C2C(=O)CC(C)(C)C3)cc1Cn1nc([N+](=O)[O-])c(Br)c1C (stereo not given)	-28	97	.	.
CCOc1ccc(CCNC(=O)c2c(C)oc3ncn(C)c(=O)c23)cc1	.	101	103	90
C(=N\c1nnc2nc[nH]n12)/c1ccco1	-16	.	96	84
C=CCNc1cc(C)nc2nc(-c3cccnc3)nn12	-1	115	.	.
COc1ccc(OCc2nn3c(CSc4ccccc4)nnc3s2)cc1	2	107	.	.
COc1ccc(OC)c(-c2nnc3n(Cc4ccc(C)cc4)c(=O)c4ccccc4n23)c1	18	101	116	93
CC(C)(C)NC(=O)CSc1nnc(NC(=O)Cn2cnc3ccccc3c2=O)s1	2	109	98	101
CCC1=Nc2cc(C(=O)NCCc3ccccc3)ccc2Sc2ccc(Cl)cc21	4	104	120	100
CN(C)/C=C1/Sc2ccccc2C1=O	-92	105	93	84
S=c1[nH]nc(-c2ccccc2)n1C1CCCC1	-10	101	121	95
COc1ccc(-n2nc(C(=O)NC3CCCCC3)c(=O)n(C)c2=O)cc1	-60	104	.	.
FC(F)(F)c1cc(-c2ccc(Cl)cc2)n[nH]1	-3	104	61	47
COc1ccc(OC)c(NC(=O)[C@H](CSCc2ccccc2)N2Cc3ccccc3C2=O)c1	8	103	102	87
O=C(NCCC(=O)N1CCN(c2cccc(Cl)c2)CC1)NC12CC3CC(CC(C3)C1)C2	-6	.	97	82
COC(=O)c1ccc(CN2CCCC(C)C2)cc1 (stereo not given)	-6	102	106	110
COc1cc(C)nc(N(CCC(C)C)S(=O)(=O)c2ccc(C)cc2)n1	-5	101	.	.
CC(=O)NC1=C(c2ccc(Br)cc2)C(=O)c2ccccc2C1=O	-4	.	67	33
O=C(NCCc1ccccc1)c1sc(=S)n2c1[nH]c(=O)c1ccccc12	.	86	93	57
O=C(CSc1nc2c([nH]c3ccccc32)c(=O)n1-c1ccc(Cl)cc1)N1CCCCCC1	.	102	131	90
CC(C)C(NC(=O)c1ccc(F)cc1)C(=O)Nc1cccnc1 (stereo not given)	-16	.	79	95
COc1ccc(CC(=O)NCCc2csc(-c3ccc(Cl)cc3)n2)cc1	.	107	137	102
CC(C)c1ccc(OCC(=O)N2CCC(C(N)=O)CC2)cc1	-4	.	92	91
Cc1nc2sc(C(=O)N(C)Cc3ccccc3)c(NC(=O)c3ccccc3)c2c(C)c1Cl	1	104	107	91
O=C(NCCCN1CCOCC1)c1cn(-c2ccccc2)nc1-c1ccccc1	-15	.	124	85
C=C(C)Cn1c(Cc2ccccc2)nc2ccccc21	-13	.	115	88
Cc1cc2[nH]c(=O)c(=O)[nH]c2cc1S(=O)(=O)N1CCC(C)CC1	.	101	114	85
CC(=O)c1cccc(-n2c(=O)c3c4c(sc3n(CC(=O)Nc3ccccc3F)c2=O)CN(C(C)=O)CC4)c1	16	100	90	97
CC1(C(=O)O)CCC(C(=O)NNc2ncnc3ccccc23)C1(C)C (stereo not given)	-26	.	109	84
COc1cccc(C(=O)N2N=C(c3cccc([N+](=O)[O-])c3)CC2(O)C(F)(F)F)c1 (stereo not given)	-24	105	.	.
O=C1NC(=O)/C(=C/C(=O)N2CCN(C(=O)/C=C3\SC(=O)NC3=O)CC2)S1	-14	101	79	89
CCC1CCCCN1C(=O)CSc1n[nH]c(-c2ccccc2Cl)n1 (stereo not given)	.	105	97	83
CN(CC(=O)NC1CC1)c1ccccc1	-16	.	77	88
Cc1cc2c(cc1S(=O)(=O)NCC1CCCO1)OCC(=O)N2 (stereo not given)	.	101	105	85
O=C(CN1C(=O)c2ccccc2S1(=O)=O)Nc1cccc(O)c1	-30	96	.	.
CCC1CN(C(=O)C2CCN(S(=O)(=O)c3c(C)noc3/C=C/c3ccccc3F)CC2)c2cc(Cl)ccc2O1 (stereo not given)	.	108	106	96
Cc1ccc2cnn(CC(=O)NC3CCCCC3)c2c1	.	103	79	93
CCOC(=O)COc1ccc([N+](=O)[O-])cc1-c1ccnc2cc(-c3ccc(Cl)cc3)nn12	-19	106	94	83
O=C1CC(c2ccco2)CC2=C1C(c1ccco1)N(C(=O)C(F)(F)F)c1ccccc1N2 (stereo not given)	.	102	74	71
O=C(CSc1ncc(C(F)(F)F)cc1Cl)N1CCN(S(=O)(=O)c2ccccc2)CC1	-30	.	102	92
COc1ccc(C2CC(=O)C3=C(C2)Nc2ccccc2NC3c2cc(OC)c(OC)cc2OC)cc1OC (stereo not given)	0	106	.	.
O=C(O)CCCn1cc(NC(=O)c2ccc(Cl)cc2)cn1	9	106	96	102
c1coc(-c2nc3n(n2)C2(CCCCC2)[C@@H]2CCCC[C@@H]2N3)c1	11	104	111	90
Brc1ccc(OCc2nn3c(-c4ccccn4)nnc3s2)cc1	-8	96	.	.
C=CCn1nc(C)c(-c2cc(C(=O)O)[nH]n2)c1C	-14	117	.	.
O=C(CCN1c2ccccc2Sc2ccccc21)NC1=NCCS1	11	.	91	96
Cc1cc(NCCO)nc(-c2ccc(Br)cc2)n1	9	105	105	87
CCN(CC)OC(=O)Nc1c(-c2c(Cl)cccc2Cl)noc1C	6	107	106	77
O=C(NCCN1CCOCC1)c1cc2n(n1)CCCN(Cc1ccc(Cl)cc1)C2=O	-10	104	105	90
COc1ccc(C=Nc2cc(C(F)(F)F)ccc2-n2ccnc2)cc1	-34	.	91	87
Cc1ccc(C)c(NC(=O)CN(C)C(=O)CC2OC(=O)c3ccccc32)c1 (stereo not given)	0	.	105	90

By substructure: the compounds so far with a COOH group.
SMILES	HCMV NEC inh	GIV Gai3 FP	Sa growth 42C	Sa growth 42C second temp
CC1(C(=O)O)CCC(C(=O)NNc2ncnc3ccccc23)C1(C)C (stereo not given)	-26	.	109	84
O=C(O)CCCn1cc(NC(=O)c2ccc(Cl)cc2)cn1	9	106	96	102
C=CCn1nc(C)c(-c2cc(C(=O)O)[nH]n2)c1C	-14	117	.	.

The list goes on:
SMILES	HCMV NEC inh	GIV Gai3 FP	Sa growth 42C	Sa growth 42C second temp
CC(C)N(C(=O)CCCN1C(=O)c2ccccc2C1=O)c1ccccc1	-18	.	101	94
Cc1ccc2c(COC(=O)C3=COCCO3)cc(=O)oc2c1	13	.	88	92
CC(C)CC(C(=O)n1nnc2ccccc21)N1C(=O)c2ccccc2C1=O (stereo not given)	22	.	110	100
Cc1ccc2c(cnn2C(=O)CCCC(=O)NCc2ccc(Cl)cc2)c1	-20	106	.	.
COc1ccc(C2CC(=O)N(CC(=O)NC3CCCCC3)c3ccccc3S2)cc1OC (stereo not given)	.	103	98	82
Cc1cc2c(cc1S(=O)(=O)NCc1ccccc1)OCC(=O)N2	.	107	126	94
FC(F)(F)c1ccn(Cc2n[nH]c(=S)o2)n1	-21	.	83	85
Cn1cc[nH]c1=S	-27&-49&-20&-21&-16&-54	95	94&93&93	89&89&82
O=S(=O)(Nc1nc2ccc(F)cc2s1)c1ccc(F)cc1F	-24	.	83	96
Cc1oc(-c2ccccc2)cc1C(=O)Nc1cccc(/C=C\C(=O)O)c1	-26	.	45	25
Cc1ccc(-c2noc(CN(C3CCCCC3)S(=O)(=O)c3ccccc3)n2)cc1	.	106	89	96
CCCCNc1sc(S(=O)(=O)CC)nc1S(=O)(=O)c1ccc(C)cc1	-18	104	110	90
Cc1ccc(C2=CC(=O)C=CC2=O)cc1	.	116	17	4
CCOc1ccc(CCNCc2c(C(=O)O)n(Cc3ccc(C)cc3)c3cc(OC)ccc23)cc1	.	101	106	94
CCN1C(=O)c2cc3ccccc3n2CC1(C)C(=O)NCC(=O)NCCOC (stereo not given)	1	112	.	.
O=C(c1ccco1)N1CCN(Cc2ccccc2Br)CC1	.	106	101	95
N#CC(C#N)=C(Nc1ccccc1)c1ccccc1	6	.	114	94
Cc1cc(-c2ccccc2)nc(-c2ccccc2)c1C	-7	.	79	61
CCCCC(=O)c1c(C)cc(C)[nH]c1=O	-18	108	90	90
COc1ccc(CNc2nc(-c3cccnc3)nn2S(=O)(=O)c2ccccc2)cc1	10	104	.	.
COc1ccc(-n2ncc(NC(=O)N3CCOCC3)c2C)cc1	-16	106	106	92
O=C(CN1CCN(Cc2ccccc2Cl)S1(=O)=O)Nc1ccc(F)cc1F	-4	100	.	.
COC(=O)Cc1nc(-c2ccc(Cl)cc2)sc1C	-11	97	100	49
COc1cccc(CC(NC(C)=O)C(=O)NC2CCN(C(=O)C3CC3)CC2)c1OC (stereo not given)	5	102	97	85
COCCCn1c2c(c(SCc3ccccc3)nc1=O)CCC2	-2	101	.	.
NC(=O)Cc1ccc2sc(-c3ccccc3)nc2c1	-34	.	114	78
Cc1cc(C(=O)OCC#N)c2ccccc2n1	-32	.	93	90
CN(C(=O)Cn1c(=O)n(Cc2ccc(C(=O)NCc3ccc4c(c3)OCO4)cc2)c(=O)c2ccccc21)c1ccccc1	2	100	113	98
COc1ccc(CNC(=O)Cn2ccc3cc(S(=O)(=O)N4CCCCC4)ccc32)cc1OC	.	106	90	88
COc1ccc(-c2nc(CCNC(=O)Cc3ccc(F)cc3)cs2)cc1	.	97	117	98
COc1cccc(N2CCN(C(=O)CCC3=NS(=O)(=O)c4ccccc4N3)CC2)c1	-6	102	.	.
CCN(C(=O)CSc1nnc(-c2ccoc2C)o1)c1ccccc1	-28	98	.	.
Cc1cccc(OCC(=O)Nc2ccc3c(c2)nc(CN2CCCCC2)n3C)c1	-6	109	117	88
Cc1cc2cc(CN3C(=O)c4ccccc4C3=O)ccc2[nH]1	-34	100	99	92
CN1CCC(c2cccs2)=N1	-13	110	110	93
N#CCSCc1ccco1	-2	.	90	84
CN(Cc1ccccc1)c1nc(-c2ccccc2)cs1	-6	104	80	109
O=C(Nc1ccc2c(c1)OCCO2)C1CCN(c2ccc(-c3ccc(F)cc3)nn2)CC1	-18	104	.	.
CCCc1nc2nc(C)c(CC(=O)N3CCc4ccccc4C3)c(C)n2n1	-3	101	.	.
O=C(CCc1nnc2ccc(NCc3ccccc3)nn12)N1CCCC1	-14	104	99	84
CCOc1ccc(NC(=O)CN2CCN(CC)CC2)cc1	-33	104	118	100
CCc1ccccc1-n1c2c(cc(-c3nc(-c4ccc(Cl)cc4)cs3)c1=O)C(=O)CC(C)(C)C2	-16	99	99	85
CCOC(=O)c1[nH]c(C)c(CCC(=O)NCc2cccc(C)c2)c1C	.	103	106	94
Cc1ccc(-n2c(C)c(C)c3c2ncn2nc(CCCN4C(=O)c5ccccc5C4=O)nc32)cc1	-26	104	.	.
Cc1cccc(C)c1NC(=O)N1CC(C)OC(C)C1 (stereo not given)	4	110	.	.
Cc1[nH]c2ccccc2c(=O)c1CN1CCOCC1	-21	282	95	86
CCS(=O)(=O)Nc1ccc2c(c1)N(C(=O)c1ccccc1)CCC2	-15	106	.	.
CCOC(=O)c1cnn(-c2ncnc3sc4c(c23)CCN(C(=O)OCC)C4)c1N	-14	109	97	92
Cc1ccc2c(c1)c(-n1cccc1)c1n2CC(C)(C(=O)NC2CCCC2)N(CCC2=CCCCC2)C1=O (stereo not given)	-16	108	.	.
CC1Cc2ccccc2N1S(=O)(=O)c1cnc[nH]1 (stereo not given)	.	113	100	85
O=c1[nH]c2ccccc2cc1/C=N/O	-142	.	79	82
COc1ccc(N2C(=O)/C(=C\c3cn(C(C)=O)c4ccccc34)C(=O)NC2=S)cc1	-4	98	.	.

Given as a markdown table: 3 of the compounds above.
| smiles | HCMV NEC inh | GIV Gai3 FP | Sa growth 42C | Sa growth 42C second temp |
| --- | --- | --- | --- | --- |
| Cc1ccc(C)c(NC(=O)CN(C)C(=O)CC2OC(=O)c3ccccc32)c1 (stereo not given) | 0 | . | 105 | 90 |
| Cc1cc2c(cc1S(=O)(=O)NCC1CCCO1)OCC(=O)N2 (stereo not given) | . | 101 | 105 | 85 |
| O=C(c1ccccc1)N1CCN(C(=O)c2cc3ccccc3oc2=O)CC1 | -22 | 100 | 105 | 77 |
